Screening data (PubChem BioAssay)
Sfp PPTase inh – blocks B. subtilis Sfp PPTase activity; 310,000 compounds, 3.5% hits; Biochemical Sfp PPTase activity, qHTS; Q9F4F7; Potency, µM, without a hit: max response, negative = inhibition, most hits filed as inhibitors; active = well fitted inhibition curve with a large enough effect; inconclusive = small, poorly fitted or top-dose-only effect, or another doubt; inactive = no such curve, though single readings can be large or run the other way;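 note: the enzyme is Sfp with the accession as filed and its product quenches rhodamine fluorescence; potency is the fitted concentration of half-maximal effect; 0% = enzyme reaction without inhibitor and -100% = no enzyme wells; top concentration of the series not given in the record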
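Sfp 15 nM + cpd, 15 min RT; start w/ rhodamine-CoA 5 uM, BHQ-2-YbbR 12.5 uM (final); 50 mM Hepes pH 7.6, 10 mM MgCl2, 0.01% NP-40, 0.01% BSA; read 525/598 nm at 0 and 30 min.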
CtBP-E1A blk – blocks the CtBP interaction with E1A. AlphaScreen GST-E1A/His-CtBP binding, 1536-well; active compounds read low; control for the full effect not named in the record. activity change, % (concentration not given with the values). 340,000 compounds, 0.49% hits. AID 651724; in the data active means activity change below about -65%; inconclusive means about -30% to -65%; inactive means above about -30%; note: % is set by controls: 0 for no effect and ±100 for the full control effect
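Protein mix (5X: 125 nM each GST-E1A, His-CtBP) was incubated with pinned compound 2 h at 37 deg C in dark, in 50 mM Tris pH 8.0 buffer with 300 mM NaCl. Glutathione donor and nickel acceptor beads followed; AlphaScreen signal read after 1 h.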
TRPV1 PAM – potentiators of human vanilloid receptor 1 (TRPV1) | AID 540277 | Q8NER1 | TRPV1-expressing cells, Fluo-8 calcium influx, capsaicin EC20 potentiation; host cell line not named in the record; control for the full effect not named in the record | 320,000 compounds, 0.02% hits | potentiation, % at 8.33 µM; active means potentiation above 80%; inconclusive means 30% to 80%; inactive means below 30%; note: 0% is about no effect
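Cells expressing TRPV1 were dye-loaded with Fluo-8 and read kinetically: 10 s baseline, 3 min after compound (agonist portion), then 2 min after EC20 capsaicin (allosteric enhancer portion). Calcium-bound dye fluorescence at 480/520 nm.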
D2 potentiator – positive allosteric modulators of human D2 dopamine receptor | P14416 | DiscoveRx D2 beta-arrestin cells, luminescence, 90 min; 100% = 57 uM dopamine signal | potentiation, % (no concentration beside the values) | 360,000 compounds, 0.23% hits; active = potentiation of 50% or more; inconclusive = 30% to 50%; inactive = 30% or less;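 note: compound concentration not given in the record; tested on top of an EC20 dose of dopamine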
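PathHunter D2 cells, attached overnight at 37 deg C, received compound in DMSO plus dopamine at EC20 (50 nM final) for 90 min at 37 deg C. Beta-arrestin recruitment was read as luminescence after 1 h with detection reagent at ambient temperature.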
D2 agonist – human D2 receptor agonism in beta-arrestin assay | P14416 | DiscoveRx PathHunter D2 beta-arrestin, luminescence, 90 min; 100% = 57 uM dopamine signal | activation, % (no concentration beside the values) | 360,000 compounds, 0.084% hits; in the data active = activation above about 40%; inconclusive = about 15% to 40%; inactive = below about 15%; note: compound concentration not given in the record; the text of the record calls up to 30% inactive
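DiscoveRx PathHunter D2 beta-arrestin cells (2,100/well) attached overnight, then compound-stimulated 90 min at 37 C in HBSS/10 mM HEPES/0.1% Tween-20 buffer; beta-galactosidase complementation read by luminescence after 1 h at ambient temperature. Dopamine 57 uM final (EC100) as control.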
PINK1 modulator – modulators of PINK1 expression. PINK1 immunofluorescence, high-content cytometry, 24 h. Potency, µM (series often up to 76.6 µM), inactives show at the highest dose activation (PINK1 increase), usual class: activators. 410,000 compounds, 0.2% hits. AID 624263; active = well fitted activation curve with a large enough effect; inconclusive = small, poorly fitted or top-dose-only effect; inactive = flat fitted curve, though single readings scatter; cell line not stated here;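 note: potency is the fitted concentration of half-maximal effect; % of control where 0% means no effect; nearly all actives have a fitted effect of over 65% in size; a mitochondrial uncoupler was the plate control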
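PINK1 protein level read as immunofluorescence by microplate cytometer in a fixed, stained stable cell line after 24 h exposure to five compound concentrations, with CCCP as control.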
Six1-Eya2 blk – Six1/Eya2 interaction inhibition; AlphaScreen GST-Six1/His-Eya2 binding, biochemical; active compounds read low; control for the full effect not named in the record; activity change, % (test concentration not listed); 360,000 compounds, 0.56% hits; in the data active = activity change below about -65%; inconclusive = about -30% to -65%; inactive = above about -30%; note: % is set by controls: 0 for no effect and ±100 for the full control effect
Target sequence (O00167 whole entry, looked up): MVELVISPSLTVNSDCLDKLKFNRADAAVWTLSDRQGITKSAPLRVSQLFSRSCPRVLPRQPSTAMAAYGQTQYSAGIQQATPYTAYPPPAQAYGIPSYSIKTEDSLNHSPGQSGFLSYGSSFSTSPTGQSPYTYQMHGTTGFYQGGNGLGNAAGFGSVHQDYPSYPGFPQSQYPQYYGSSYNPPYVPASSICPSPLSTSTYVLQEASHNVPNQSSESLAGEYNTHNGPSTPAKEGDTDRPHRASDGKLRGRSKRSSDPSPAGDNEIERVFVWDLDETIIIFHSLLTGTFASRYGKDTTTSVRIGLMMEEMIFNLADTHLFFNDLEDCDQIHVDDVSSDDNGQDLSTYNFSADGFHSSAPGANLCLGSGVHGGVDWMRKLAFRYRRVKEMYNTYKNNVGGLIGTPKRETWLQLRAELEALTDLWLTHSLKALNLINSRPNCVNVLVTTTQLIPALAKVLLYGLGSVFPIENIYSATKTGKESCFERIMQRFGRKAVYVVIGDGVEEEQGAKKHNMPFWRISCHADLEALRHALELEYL
Target sequence (Q15475 whole entry, looked up): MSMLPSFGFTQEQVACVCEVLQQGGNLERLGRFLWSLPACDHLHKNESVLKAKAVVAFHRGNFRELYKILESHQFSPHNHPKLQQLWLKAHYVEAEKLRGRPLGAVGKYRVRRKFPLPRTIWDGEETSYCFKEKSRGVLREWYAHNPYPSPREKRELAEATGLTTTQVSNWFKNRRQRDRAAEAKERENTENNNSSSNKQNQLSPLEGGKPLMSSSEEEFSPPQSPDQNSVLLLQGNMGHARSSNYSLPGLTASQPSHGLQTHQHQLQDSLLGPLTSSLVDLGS
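AlphaScreen with GST-Six1 and His-Eya2 (5X mix: 250 nM and 500 nM), glutathione donor and nickel acceptor beads; buffer 50 mM Tris pH 8.0, 300 mM NaCl, 1 mM TCEP; 1 h at 37 C in the dark.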
* = called active by the depositor; ? = inconclusive; nt = not tested or not shown; & = joins results of further samples; [ ] = another dose, or the depositor's remark.

#	smiles	Sfp PPTase inh	CtBP-E1A blk	TRPV1 PAM	D2 potentiator
1	O=C(Nc1ccc(Br)cc1)C1CCCC1	8%	12	21	-7
2	O=C(Nc1ccc(Cl)c(Cl)c1)N1CCCCCC1	12%	4	-13	-20
3	Fc1cccc(NC(=S)NC2CCCCCCC2)c1	6%	-24	-9	-19
4	O=C(Cn1ccc(NC(=O)OCc2ccccc2)nc1=O)NCCCN1CCCC1=O	nt	-16	-8	-11
5	Cc1ccnc(N=O)c1	nt	-2	nt	nt
6	Cc1nc2cc(C(=O)OCC(=O)NC3CCS(=O)(=O)C3)ccc2n1-c1ccccc1 (stereo not given)	20%	2	-1	-2
7	CC1(C)C(=Cc2ccccc2)C(=O)c2ccccc21	nt	7	nt	-11
8	CC1(C)CC(=O)C2=C(C1)N(c1ncn[nH]1)C(N)=C(C#N)C2c1ccccc1 (stereo not given)	11%	1	?	-25
9	CSc1ncccc1C(=O)NCC12CC3CC(CC(C3)C1)C2	11%	9	1	-15
10	O=C(O)C1CSC(c2ccco2)N1 (stereo not given)	?	nt	-1	-6

#	D2 agonist	PINK1 modulator	Six1-Eya2 blk
1	-1.6	1.1%	0
2	-5.2	6.4%	3
3	-5.1	16µM*	0
4	-2.6	-1.0%	-3
5	4.3	1.9%	1
6	-5.5	-1.0%	3
7	-3.2	4.3%	5
8	4.5	7.1%	2
9	-0.8	0.8%	-4
10	1.8	0.8%	-30

More compounds.
#	smiles	Sfp PPTase inh	CtBP-E1A blk	TRPV1 PAM	D2 potentiator
11	Cc1cccc(NC(=O)CCN2CCN(C)CC2)c1	-15%	8	12	-10
12	O=C(NCC(=O)N1CCN(c2ccccc2)CC1)c1ccc(Cl)cc1	8%	nt	1	-5
13	CN(C)c1cccc(CNC(=O)c2ccc3nc([C@H]4C[C@H](O)[C@@H](CO)O4)[nH]c3c2)c1	nt	1	nt	-3
14	C=CCSc1nc(N)c2c3c(sc2n1)CN(C)CC3	5%	-2	5	-23
15	O=C(O)c1ccc(Oc2ccc(C(F)(F)F)cn2)cc1	20%	-1	-8	0
16	COc1ccc(C)cc1S(=O)(=O)N(CC(=O)O)c1ccc(F)cc1	0%	0	-11	-22
17	CCc1nccn1S(=O)(=O)c1ccc(OC)c(C)c1C	3%	8	10	-2
18	COC(=O)c1nn(-c2ccccc2)c(Cl)c1/C=N/O	12%	7	-4	4
19	COC(=O)c1ccc(S(=O)(=O)N(C2CCCCC2)C2CCCCC2)n1C	-9%	0	?	-1
20	CCOC(=O)C1CCC(C(=O)OCC)N1c1ccc(C=O)cc1 (stereo not given)	nt	-14	nt	-5

#	D2 agonist	PINK1 modulator	Six1-Eya2 blk
11	3.7	1.2%	-4
12	3.5	-0.3%	5
13	-8.4	-0.1%	2
14	-6.1	3.3%	-13
15	-0.8	-0.6%	0
16	-3.0	1.5%	-9
17	-2.7	7.4%[38.3 µM]	6
18	-1.9	-1.1%	-2
19	-4.1	10%	-7
20	3.7	0.7%	-6

Given tab-delimited: 13 of the compounds above.
no.	SMILES	Sfp PPTase inh	CtBP-E1A blk	TRPV1 PAM	D2 potentiator	D2 agonist	PINK1 modulator	Six1-Eya2 blk
5	Cc1ccnc(N=O)c1	nt	-2	nt	nt	4.3	1.9%	1
6	Cc1nc2cc(C(=O)OCC(=O)NC3CCS(=O)(=O)C3)ccc2n1-c1ccccc1 (stereo not given)	20%	2	-1	-2	-5.5	-1.0%	3
7	CC1(C)C(=Cc2ccccc2)C(=O)c2ccccc21	nt	7	nt	-11	-3.2	4.3%	5
8	CC1(C)CC(=O)C2=C(C1)N(c1ncn[nH]1)C(N)=C(C#N)C2c1ccccc1 (stereo not given)	11%	1	?	-25	4.5	7.1%	2
9	CSc1ncccc1C(=O)NCC12CC3CC(CC(C3)C1)C2	11%	9	1	-15	-0.8	0.8%	-4
10	O=C(O)C1CSC(c2ccco2)N1 (stereo not given)	?	nt	-1	-6	1.8	0.8%	-30
11	Cc1cccc(NC(=O)CCN2CCN(C)CC2)c1	-15%	8	12	-10	3.7	1.2%	-4
12	O=C(NCC(=O)N1CCN(c2ccccc2)CC1)c1ccc(Cl)cc1	8%	nt	1	-5	3.5	-0.3%	5
13	CN(C)c1cccc(CNC(=O)c2ccc3nc([C@H]4C[C@H](O)[C@@H](CO)O4)[nH]c3c2)c1	nt	1	nt	-3	-8.4	-0.1%	2
14	C=CCSc1nc(N)c2c3c(sc2n1)CN(C)CC3	5%	-2	5	-23	-6.1	3.3%	-13
15	O=C(O)c1ccc(Oc2ccc(C(F)(F)F)cn2)cc1	20%	-1	-8	0	-0.8	-0.6%	0
16	COc1ccc(C)cc1S(=O)(=O)N(CC(=O)O)c1ccc(F)cc1	0%	0	-11	-22	-3.0	1.5%	-9
17	CCc1nccn1S(=O)(=O)c1ccc(OC)c(C)c1C	3%	8	10	-2	-2.7	7.4%[38.3 µM]	6

Continuation.
#	smiles	Sfp PPTase inh	CtBP-E1A blk	TRPV1 PAM	D2 potentiator
21	CCCCSc1cc(=O)[nH]c(N)n1	3%	-3	2	-1
22	O=C(CNC(=S)N(Cc1ccccc1F)C1CCCCC1)NC1CC1	-3%	5	-15	-1
23	COC(=O)c1ccc2nc(Nc3nc4c(F)cc(F)cc4s3)sc2c1	-23%	-12	1	-8
24	CCOc1ccc(NC(=O)CN(C)C(=O)c2cccc(S(=O)(=O)N3CCCC3)c2)cc1OCC	nt	1	-6	-3
25	C/C(=N\NC(=O)c1cccnc1)c1ccc(C)c([N+](=O)[O-])c1	-3%	0	-13	-14
26	CC(=O)Nc1ccc(NC(=O)Cn2cc3c(n2)CCCC3)cc1	7%	5	1	-21
27	CCC(C)NC(=O)C1CC(=O)N(CCc2ccc(F)cc2)C1 (stereo not given)	-6%	-4	7	-12
28	CCOc1ccc(CCNC(=O)COC(=O)Cc2ccc(OC)c(OC)c2)cc1OCC	nt	7	-16	-2
29	NC1=NC(c2ccc(Br)cc2)n2c(nc3ccccc32)N1 (stereo not given)	2%	-4&2	-6	-12&-14
30	COc1c(CC=C(C)C)cc(C2CC(=O)c3c(O)cc(O)cc3O2)cc1CC=C(C)C (stereo not given)	11%	-7	0	-24

#	D2 agonist	PINK1 modulator	Six1-Eya2 blk
21	-2.2	-0.2%	-15
22	-2.7	3.3%[38.3 µM]	1
23	-1.5	?	-8
24	-3.8	2.9%	-1
25	-7.0	2.4%	6
26	-3.8	3.1%	4
27	0.8	0.0%	23
28	2.2	-0.5%	2
29	-3.4&-0.5	-0.4%	-15&0
30	11	-1.3%	-4

Next results follow.
#	smiles	Sfp PPTase inh	CtBP-E1A blk	TRPV1 PAM	D2 potentiator
31	COc1ccc(C2CC(=O)Oc3c(C(CCN4CCCCC4)c4ccc(N(C)C)cc4)c(OC)cc(OC)c32)cc1 (stereo not given)	-10%&-9%	?	-1	-35
32	CC(=O)Nc1ccc(C(=O)/C=C/c2ccco2)cc1	13µM*	-8	-8	-31
33	COc1ccc(Cl)cc1NC(=O)C1CSC(c2ccncc2)=N1 (stereo not given)	?	-19	3	-13
34	O=C(O)CN1C(=O)COc2cc(S(=O)(=O)N3CCCC3)ccc21	8%	5	-5	-1
35	CCOc1ccccc1-c1nc(-c2ccc(NC(=O)c3ccc(Br)o3)cc2)no1	-11%	-7	?	10
36	COc1cc(NC(=O)CN2CCN(S(=O)(=O)c3ccc(C(C)C)cc3)CC2)cc(OC)c1	-2%	-1	1	-9
37	CC(C)C(N)c1csc(Nc2ccc(C(F)(F)F)cn2)n1 (stereo not given)	nt	?	nt	-12
38	Cc1ccc(NC(=S)NC(=O)C2CCC2)cc1C	8%	9	-11	-3
39	COc1cccc(CC2(CO)CCN(Cc3cn(C)nc3C)CC2)c1	8%	12	14	-6
40	CC(=O)Nc1ccc(NC(=O)CC2(CC(=O)N3CCOCC3)CCCC2)cc1	nt	6	-3	9

#	D2 agonist	PINK1 modulator	Six1-Eya2 blk
31	-4.2	2.1%	?
32	-4.8	-0.2%	?
33	-5.6	2.2%	-6
34	-1.0	3.2%	-3
35	3.3	7.4%	-11
36	-0.3	-0.8%	-2
37	-2.0	-0.9%	-21
38	-0.1	5.8%	2
39	-3.3	-0.9%	-4
40	0.1	-2.2%	-4

Other structures
#	smiles	Sfp PPTase inh	CtBP-E1A blk	TRPV1 PAM	D2 potentiator
41	COc1cc(C2OC(=O)c3ccccc3S2)cc(OC)c1OC (stereo not given)	-4%	2	nt	-2
42	O=C(COc1ccc(Cl)cc1)NC1=NN(c2ccccc2)C(=O)C1	15%	-16	13	2
43	N#Cc1ncc(-c2ccc3c(c2)OCCOCCOCCOCCOCCO3)nc1C#N	3%	3	1	-2
44	COc1ccccc1N(CC(=O)NCCc1ccccc1)C(=O)CCC(=O)Nc1nccs1	18%	-1	9	3
45	O=C1C2=C(c3ccccc31)[N+](=O)[C@@H]1CCCC[C@@H]1N2[O-]	56µM*	3	1	21
46	COCCN(C(=O)Cc1cccs1)C(C(=O)NCc1ccc(OC)cc1)c1ccc(C(C)C)cc1 (stereo not given)	-7%	0	-21	-14

#	D2 agonist	PINK1 modulator	Six1-Eya2 blk
41	-1.2	-1.2%	5
42	-0.2	-2.0%	-26
43	-1.5	5.4%	0
44	-3.3	1.6%	0
45	3.8	nt	-6
46	2.0	4.6%[38.3 µM]	-2
